Compound activity: PubChem BioAssay, National Center for Advancing Translational Sciences (NCATS)
RE007 growth inh: qHTS Assay for Inhibitors of the HIV-1 protein Vpr | S. pombe RE007 Vpr strain, BacTiter-Glo ATP luminescence, 24 h; control for the full effect not named in the record | Potency, µM (doses to about 92.2 µM), for inactives: at the top dose activity change, negative = less growth | actives 0.21% (n = 360,000); active = well fitted falling curve with a large enough effect; inconclusive = small, poorly fitted or top-dose-only effect; inactive = no such curve, though single readings can be large or run the other way;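 note: % is set by controls: 0 for no effect and ±100 for the full control effect; nearly all actives have a fitted effect of over 50% in size; the assay follows cell death caused by Vpr and the record does not say whether a fall means rescue or toxicity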
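Fission yeast RE007 carrying one integrated HIV-1 vpr copy, seeded at OD 0.01 in PMG+AL medium with 23 nL pinned compound. Grown 24 h at 30 degrees; viability read by BacTiter-Glo luminescence after 5 min.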
NS1 function inh: qHTS Assay for Inhibitors of Influenza NS1 Protein Function; S. cerevisiae slowed by influenza A NS1, growth recovery by OD600; Potency, µM (doses to about 46.1 µM), for the others: top-dose activity, positive = more growth; actives 0.4% (n = 270,000); AID 2326, 2010; note: actives are rising curves; nearly all actives have a fitted effect of over 50% in size
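In this qHTS, NS1 from influenza A is expressed in budding yeast, where it slows growth. Cells are switched from glucose to 2% galactose medium (pH 6.0, -URA), treated with compound, and growth recovery is read at OD600.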
Cruzain noTriton: qHTS Assay for Promiscuous and Specific Inhibitors of Cruzain (without detergent); Cruzipain (Trypanosoma cruzi), P25779; purified cruzain, Z-FR-AMC fluorescence, no detergent; Potency, µM, inactives show max response, negative = inhibition, most hits filed as inhibitors; actives 2.3% (n = 200,000); AID 1476, 2009; active = well fitted curve in the direction sought with a large enough effect; inconclusive = small, poorly fitted or top-dose-only effect, or another doubt; inactive = no such curve, though single readings can be large; an effect the other way counts as inactive or inconclusive;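 note: plate controls were enzyme without inhibitor for no effect and buffer without enzyme for full effect; nearly all actives have a fitted effect of over 40% in size; top concentration of the series not given in the record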
Target sequence (P25779 123-467 limits assumed): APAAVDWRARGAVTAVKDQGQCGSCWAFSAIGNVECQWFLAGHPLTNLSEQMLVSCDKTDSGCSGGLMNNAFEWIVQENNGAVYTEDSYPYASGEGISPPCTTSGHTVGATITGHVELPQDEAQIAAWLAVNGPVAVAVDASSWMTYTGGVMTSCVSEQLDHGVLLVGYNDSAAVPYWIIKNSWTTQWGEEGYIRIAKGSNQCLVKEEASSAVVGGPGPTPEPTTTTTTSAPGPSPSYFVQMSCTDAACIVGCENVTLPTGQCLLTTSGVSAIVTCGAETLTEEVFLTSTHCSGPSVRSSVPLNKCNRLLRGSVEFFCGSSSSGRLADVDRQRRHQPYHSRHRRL
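Purified cruzain at 1.5 nM, pre-incubated 15 min with compound at room temperature in 100 mM sodium acetate pH 5.5, 5 mM DTT, 0.00005% Triton X-100. Reaction started with 2 uM Z-FR-AMC; AMC fluorescence increase over 60 s gives rate.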
StopGo reporter: High Throughput Screening for Foot and Mouth Disease Virus Antivirals | actives 1.2% (n = 410,000) | human cells with a luciferase reporter of 2A StopGo recoding; control for the full effect not named in the record | Potency, µM (series often up to 57.9 µM), inactives show at the top dose signal change, negative = less light; active = well fitted falling curve with a large enough effect; inconclusive = small, poorly fitted or top-dose-only effect; inactive = no such curve, though single readings can be large or run the other way; tested in HEK293T cells; note: % is set by controls: 0 for no effect and ±100 for the full control effect; nearly all actives have a fitted effect of over 45% in size; luciferase light after 4 h
SARS PLpro yeast: qHTS of Yeast-based Assay for SARS-CoV PLP | S. cerevisiae expressing SARS-CoV PLpro, growth rescue; control for the full effect not named in the record | Potency, µM (doses to about 32.9 µM), for the others: top-dose activity, positive = growth rescue | actives 0.19% (n = 330,000) | AID 485353, 2010; note: 0% is about no effect; nearly all actives have a fitted effect of over 55% in size; growth read by luminescence after 48 h
LASV entry inh: qHTS for Inhibitors of binding or entry into cells for Lassa Virus; Potency, µM (top dose mostly 37.9 µM), without a hit: at the top dose activity change, negative = inhibition, most hits filed as inhibitors; AID 540256, 2011; actives 1.2% (n = 300,000); Lassa virus pseudotype entry inhibition, cell reporter; control for the full effect not named in the record; active means well fitted inhibition curve with a large enough effect; inconclusive means small, poorly fitted or top-dose-only effect, or effect the other way; inactive means flat fitted curve, though single readings scatter; tested in HEK293 cells; note: % is set by controls: 0 for no effect and ±100 for the full control effect; nearly all actives have a fitted effect of over 50% in size; luciferase read-out
Cruzain inh Det: qHTS Assay for Promiscuous and Specific Inhibitors of Cruzain (with detergent); purified cruzain, Z-FR-AMC fluorescence, 0.01% Triton; Potency, µM, without a hit: max response, negative = inhibition, hits mostly inhibitors; actives 0.43% (n = 200,000); AID 1478, 2009; active = well fitted curve in the direction sought with a large enough effect; inconclusive = small, poorly fitted or top-dose-only effect, or another doubt; inactive = no such curve, though single readings can be large; an effect the other way counts as inactive or inconclusive;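 note: plate controls were neutral wells for no effect and buffer without enzyme for full effect; nearly all actives have a fitted effect of over 40% in size; top concentration of the series not given in the record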
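Detergent-containing run (0.01% Triton X-100) in acetate buffer pH 5.5 with 5 mM DTT: enzyme at 1.5 nM final, 15 min compound preincubation at room temperature, then 2 uM Z-FR-AMC substrate. Activity taken as 60 s fluorescence increase at 360/450 nm.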
Marburg entry inh: qHTS for inhibitors of binding or entry into cells for Marburg Virus. Marburg virus pseudotyped entry inhibition, cell reporter; control for the full effect not named in the record; about a third of the inactives were read at about 46 µM. Potency, µM (titrated, usually from 37.8 µM), for inactives: top-dose activity change, negative = inhibition, hits mostly inhibitors. actives 1.8% (n = 300,000). AID 540276, 2011; active = well fitted inhibition curve with a large enough effect; inconclusive = small, poorly fitted or top-dose-only effect, or effect the other way; inactive = flat fitted curve, though single readings scatter; tested in HEK293 cells; about a fifth of its hits are not listed in these tables; note: % is set by controls: 0 for no effect and ±100 for the full control effect; luciferase read-out
Active calls of the source: *; ? = inconclusive; / = not tested or not shown; & = joins results of further samples; [ ] = remark or other dose. Unless noted, calls come from the whole dose curve; as a rule, active means well fitted rising curve with a large enough effect; inconclusive means small, poorly fitted or top-dose-only effect; inactive means no such curve, though single readings can be large or run the other way. Potency is the fitted concentration of half-maximal effect.

Compound,RE007 growth inh,NS1 function inh,Cruzain noTriton,StopGo reporter,SARS PLpro yeast,LASV entry inh,Cruzain inh Det,Marburg entry inh
Nc1nc(SCC(=O)c2ccc(F)cc2)n[nH]1,4.2%,/,/,-2.1%,0.0%,9.7%[46.1 µM],/,6.4%[46.1 µM]
CC1=C(C(=O)OC2CCCCC2)C(c2ccccc2)NC(=O)N1 (stereo unspecified),-11.7%,16.3%,/,-21.1%,3.2%,?,/,?
COC(=O)c1ccc(NC(=O)CCN2CCN(c3ccccc3)CC2)cc1,0.1%,-3.8%,3.6%,-21.5%,-1.3%,?,4.7%,-2.4%
CCOc1ccc(NC(=O)c2ccc(OC)cc2)cc1,1.4%,-9.6%,-8.4%,33.5%[activator],-3.4%,1.1%,1.2%,16.9%
Cc1cc(C)c(S(=O)(=O)n2c([N+](=O)[O-])cnc2C)cc1C,1.6%,1.9%,4.1%,-15.1%,-2.0%,0.3%,-5.2%,27.6%
CCOC(=O)c1c(NC(=O)C2c3ccccc3Oc3ccccc32)sc(C(=O)N(CC)CC)c1C,-20.2%,22.2%,15.7%,?,11.0%,?,-0.4%,12.6µM*
COc1ccc(N2CCN(CC(=O)NC(C)c3ccccc3)CC2)cc1 (stereo unspecified),8.7%,10.7%,/,-5.5%,5.1%,?,/,18.3%[46.1 µM]
Cc1cc(OCC(=O)N(C)c2c(N)n(Cc3ccccc3)c(=O)[nH]c2=O)c(C(C)C)cc1Cl,1.0%,/,/,-15.4%,2.9%,-8.6%,/,-5.1%[46.1 µM]

Brought forward from above: two compounds, followed by the next part.
Compound,RE007 growth inh,NS1 function inh,Cruzain noTriton,StopGo reporter,SARS PLpro yeast,LASV entry inh,Cruzain inh Det,Marburg entry inh
COc1ccc(N2CCN(CC(=O)NC(C)c3ccccc3)CC2)cc1 (stereo unspecified),8.7%,10.7%,/,-5.5%,5.1%,?,/,18.3%[46.1 µM]
Cc1cc(OCC(=O)N(C)c2c(N)n(Cc3ccccc3)c(=O)[nH]c2=O)c(C(C)C)cc1Cl,1.0%,/,/,-15.4%,2.9%,-8.6%,/,-5.1%[46.1 µM]
COC(=O)c1ccc(CSc2nncn2C)cc1,15.0%,-1.2%,7.6%,25.6%,12.1%,4.2%,1.5%,13.7%
COCc1ccc(C(=O)N2CCCC(C(=O)c3ccc(SC)cc3)C2)o1 (stereo unspecified),1.9%,-23.3%,/,-16.4%,2.9%,-29.1%,/,-19.6%
C=CCn1c(C)cc(-c2csc(NCC)n2)c1C,-32.7%,1.4%,/,8.2%,-4.5%,-28.9%,/,?
COc1cccc(C(=O)NCCNC(=O)c2cnccn2)c1,4.9%,-1.3%,/,-3.9%,-0.8%,-8.2%[46.1 µM],/,3.2%[46.1 µM]
O=C(Cn1ncc2c([nH]c3ccccc32)c1=O)N1CCCCC1,-10.5%,-2.1%,/,-5.5%,-3.2%,/,/,/
CCOC(=O)Cc1csc(NC(=O)c2ccc([N+](=O)[O-])cc2[N+](=O)[O-])n1,5.4%,10.7%,/,-7.9%,-1.0%,?,/,12.2%
COc1cccc(CNc2ccc(C)c(Cl)c2)c1,4.1%,-6.7%,/,31.3%[activator],-1.0%,/,/,/
O=C(NCc1ccccn1)c1cccc(NS(=O)(=O)c2ccccc2)c1,0.7%,/,/,25.2%,3.6%,4.3%,/,0.0%
COc1ccc(-c2nc3ccc(C(=O)NCCCN4CCOCC4)cc3nc2-c2ccc(OC)cc2)cc1,3.9%,4.2%,/,-18.9%,?,/,/,/
CCN(c1ccc(C)cc1)S(=O)(=O)c1nnc(NC(=O)c2ccco2)s1,-6.0%,8.8%,/,13.9%,-27.1%,-24.2%[46.1 µM],/,-17.1%[46.1 µM]
O=C(COC(=O)CCc1ccc(S(=O)(=O)N2CCOCC2)cc1)Nc1ccccc1[N+](=O)[O-],?,/,/,-10.7%,-3.0%,?,/,-0.1%
CCOc1ccccc1NC(=O)CSc1nnc(CNC(=O)COc2ccc(Cl)cc2)o1,3.6%,-14.2%,8.3%,-24.3%,-1.7%,1.9%,-1.1%,-0.6%&18.9%
N#C/C(=C\c1ccccc1Cl)C(=O)NC(=O)Oc1ccccc1,9.1%,-5.2%,-6.2%,/,4.2%,?,-4.1%,-1.9%
Cn1c(O)c(N=Nc2ccccc2)c2ccccc21,-6.4%,-8.9%,/,6.4%,0.3%,?,/,4.8%[46.1 µM]
CCOc1ccc(S(=O)(=O)NCCC(=O)NC2CCN(Cc3ccccc3)CC2)cc1,-12.3%,/,/,-18.5%,0.2%,-6.8%,/,1.6%
CCOC(=O)C(C)Sc1nc2c([nH]c3ccccc32)c(=O)n1C (stereo unspecified),-29.8%,-5.2%,2.9%,/,15.8%,?,-1.0%,-26.0%
CC(C)(C)NCCCOc1ccc(Cl)cc1C(C)(C)C,/,29.0%,-6.4%,/,-14.3%,?,3.4%,?
CCOc1ccccc1-n1cnc(C#N)c1N,0.5%,2.7%,/,2.0%,-1.4%,2.8%[46.1 µM],/,4.4%[46.1 µM]
CCOc1ccc(NC(=O)c2cc(S(=O)(=O)N3CCN(c4ccccc4F)CC3)ccc2F)cc1,/,/,-19.9%,-19.3%,/,-4.1%[46.1 µM],1.6%,/
NC(=O)[C@H]1CC2(CC(c3cccc(NC(=O)COc4ccc(Cl)cc4)c3)=NO2)CN1C(=O)C(c1ccccc1)c1ccccc1 (stereo partly specified),-3.3%,10.3%,/,-23.7%,1.7%,/,/,/
Cc1cc(C)cc(N2C(=O)NC(=O)/C(=C\c3cccn3-c3ccccc3)C2=O)c1,-7.2%,6.9%,-4.8%,35.5µM*,-41.9%,?,-3.3%,?
COC(=O)C1=C(C)N(Cc2ccc(C)cc2)C(=O)/C1=C\c1ccc(O)c(OC)c1,9.8%,10µM*,12.7%,?,3.1%,?,-6.9%,?
O=C(O)Cc1n[nH]c(=O)c2ccccc12,10.1%,-5.5%,-11.0%,-8.3%,10.2%,-0.7%,-1.5%,-3.5%
Cc1ccc(OCC(=O)N/N=C\c2c(C)[nH]n(-c3ccccc3)c2=O)c([N+](=O)[O-])c1,-13.1%,-0.1%,15.6%,-17.3%,5.62µM*,?,1.7%,?
O=C(Nc1ccc(S(=O)(=O)Nc2ncccn2)cc1)c1ccc(N2CCCC2=O)cc1,-6.7%,-0.8%,/,-0.9%,-0.9%,/,/,/
CCCCNC(=O)Nc1cc(C(=O)OC)ccc1Cl,-0.4%,-0.9%,-0.9%,-10.8%,-0.5%,-9.7%,3.7%,-12.0%[46.1 µM]
O=C1C2C3c4ccccc4C(Br)(c4ccccc43)C2C(=O)N1c1ccccc1O (stereo unspecified),23.5%,-6.7%,?,-12.8%,-14.0%,?,-7.0%,?
Cc1c(Cl)cccc1NC(=S)NCCCN(C)C,6.3%,5.3%,-0.1%,-11.6%,-12.1%,8.8%,0.8%,-21.0%
N#CC(c1ccc(Cl)cc1)N1CCOCC1 (stereo unspecified),-6.6%,3.4%,/,-5.3%,0.4%,/,/,/
O=C1Nc2ccccc2Nc2ccc([N+](=O)[O-])cc21,1.9%,0.8%,/,-1.9%,1.1%,14.3%[46.1 µM],/,-4.7%[46.1 µM]
O=C(CC12CC3CC(CC(C3)C1)C2)N1CCN(S(=O)(=O)c2cccs2)CC1,-13.9%,8.1%,0.1%,?,3.6%,-10.5%,-0.1%,15.0%
O=S(=O)(Nc1cccc(-n2cnnn2)c1)c1ccc(F)cc1,9.4%,/,/,27.3%,2.5%,-20.1%,/,-2.0%[46.1 µM]
CCOc1ncccc1C(=O)Nc1ccccc1N1CCOCC1,1.0%,/,/,-10.7%,0.6%,-8.4%,/,0.7%
Cn1c(Cc2ccccc2)nnc1SCc1nc2ccccc2c(=O)[nH]1,8.9%,/,/,10.4%,8.8%,3.0%[46.1 µM],/,-8.9%[46.1 µM]
O=C(CN1C(=O)COc2ccccc21)NCCN1CCOCC1,-0.4%,5.9%,/,5.0%,-0.4%,15.6%,/,-1.8%[46.1 µM]
Cc1c(Cl)cccc1-c1ccc(C(=O)Nc2ccc3oc(-c4cccnc4)nc3c2)o1,/,/,?,?,/,20.9%[46.1 µM],?,/
Cc1nnc(NC(=O)CSc2ccccn2)s1,-2.2%,-0.3%,0.3%,-15.7%,-1.8%,-3.5%,4.9%,?
Cc1cccc(NC(=O)Cc2ccc(F)cc2)c1,14.7%,-17.5%,4.7%,32.1%[activator],-6.9%,1.8%,-3.8%,?
CC(=NCCN(C)C)c1c(O)n(Cc2ccccc2)c(=O)[nH]c1=O,-10.9%,1.0%,/,-19.0%,0.0%,/,/,/
CCC(CC)C1=NN2C(=N)/C(=C/c3ccc(OC(=O)c4ccco4)cc3)C(=O)N=C2S1,-5.1%,7.8%,/,-17.4%,-17.1%,/,/,/
O=C(Nc1ccc(-c2nc3cc(NC(=O)c4ccccc4Cl)ccc3o2)cc1)c1ccccc1Cl,/,/,-4.2%,?,/,-18.0%[46.1 µM],1.1%,/
